Assay outcomes deposited in PubChem by several laboratories.
FGF22 binding: binders of human FGF22 protein, primary screen, FGF22 synaptogenesis inhibitor project, biophysical, thermal shift, single point; Fibroblast growth factor 22 (Homo sapiens), Q9HCT0; recombinant FGF22 thermal shift, SYPRO orange fluorescence; percent of sucrose octasulfate shift, DMSO zero; calls only at 9.99 µM; 340,000 compounds, 1.5% hits;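 active = melting point raised past a set limit in the mean and every replicate; three in four hits are not shown here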
Target sequence (Q9HCT0 whole entry, looked up): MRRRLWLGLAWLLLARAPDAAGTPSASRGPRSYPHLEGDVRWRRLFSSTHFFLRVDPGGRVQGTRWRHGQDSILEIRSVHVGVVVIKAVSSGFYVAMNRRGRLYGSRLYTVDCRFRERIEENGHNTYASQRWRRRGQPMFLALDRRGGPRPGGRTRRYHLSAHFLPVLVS
rRNA inh HTS: reduced GFP signal of wild-type E. coli, primary screen, bacterial rRNA inhibitor project, GFP/RFP fluorescence, OD600, single point | AID 720706, 2013 | GFP signal change (wild-type ribosome), % (concentration not given with the values) | 350,000 compounds, 1.6% hits | E. coli WT GFP vs humanized-ribosome RFP mutants, 24 h; hits give low values; DMSO median 0, no signal -100;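 active = significant combined selectivity score with lowered wild-type GFP, culture density cut under 30%, mutant RFP and density less affected; inactive = any of these conditions unmet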; note: one replicate is shown; some compounds called inactive have numbers as strong as hits
HNF4A DNA FP: change in binding of human HNF4A to DNA, primary screen, biochemical, fluorescence polarization, FITC-DNA; 1 h; activity change, % at 10 µM; 360,000 compounds, 0.3% hits; AID 1224865, 2016; in the data active = activity change above about 30%, passing the limit was not always enough;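 note: controls were the assay level and a saturating level of protein; the project sought stronger binding though the title names inhibitors; some compounds called inactive have numbers as strong as hits; positive values seem to mean higher polarization but the record does not say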
B2AR ag: beta2AR agonists driving receptor internalization, primary screen, cell-based, FAP fluorogen, flow cytometry; Beta-2 adrenergic receptor (Homo sapiens), P07550; Am2.2-beta2AR cells; reference of the scale not given here; response, % (concentration not given with the values); 340,000 compounds, 0.43% hits;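 active = response above a set limit, near 3 SD of response in nonfluorescent compounds, cut at about 42% in these data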;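 note: stock transfer was 100 nL into about 11 µL; a reference agonist was the positive control; negative values mostly stem from fluorescent compounds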
Target sequence (P07550 whole entry, looked up): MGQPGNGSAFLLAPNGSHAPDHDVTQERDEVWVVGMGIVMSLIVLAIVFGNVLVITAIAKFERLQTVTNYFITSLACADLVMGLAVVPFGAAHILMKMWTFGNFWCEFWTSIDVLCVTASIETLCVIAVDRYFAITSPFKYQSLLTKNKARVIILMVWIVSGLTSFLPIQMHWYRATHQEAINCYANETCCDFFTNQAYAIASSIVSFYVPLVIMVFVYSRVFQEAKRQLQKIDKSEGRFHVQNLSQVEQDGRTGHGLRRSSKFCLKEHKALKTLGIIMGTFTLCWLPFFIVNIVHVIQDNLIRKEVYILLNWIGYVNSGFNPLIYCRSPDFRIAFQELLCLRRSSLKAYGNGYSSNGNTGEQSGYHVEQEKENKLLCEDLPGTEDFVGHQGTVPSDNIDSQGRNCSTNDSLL
E coli growth: E. coli growth inhibition, primary screen, OD600; 330,000 compounds, 0.21% hits; OD600 absorbance (no concentration beside the values); AID 1053175, 2014; Escherichia coli growth, 23 h; hits give low values;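 active = OD600 absorbance below the run mean of sample wells minus 3.6 SD, in any replicate, cut at about 0.56 in these data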;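 note: stock transfer was 300 nL into about 60 µL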
ALR inh: inhibitors of human ALR sulfhydryl oxidase, primary screen, biochemical, H2O2 detection, HRP-luminol luminescence, single point. 290,000 compounds, 3.8% hits. FAD-linked sulfhydryl oxidase ALR (Homo sapiens), P55789. inhibition, % (concentration not given with the values). AID 485317, 2010. purified ALR, DTT oxidation;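 active = mean and each replicate at 75% or more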;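 note: stock transfer was 7.5 nL into about 7.5 µL; 0% = neutral wells and 100% = wells with inactivated enzyme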
UCH37 DUB inh: inhibitors of human UCH37 deubiquitinase, primary screen, biochemical, Ub-AMC cleavage, fluorescence | inhibition, % (concentration not given with the values) | purified proteasome/UCH37 | AID 588478, 2011 | 330,000 compounds, 0.33% hits | Ubiquitin carboxyl-terminal hydrolase isozyme L5 (Homo sapiens), Q9Y5K5;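 active = mean of two replicates above 20%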;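 note: 0% = compound-free wells with enzyme and 100% = wells lacking proteasome; stock transfer was 100 nL into about 20 µL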
Target sequence (Q9Y5K5 whole entry, looked up): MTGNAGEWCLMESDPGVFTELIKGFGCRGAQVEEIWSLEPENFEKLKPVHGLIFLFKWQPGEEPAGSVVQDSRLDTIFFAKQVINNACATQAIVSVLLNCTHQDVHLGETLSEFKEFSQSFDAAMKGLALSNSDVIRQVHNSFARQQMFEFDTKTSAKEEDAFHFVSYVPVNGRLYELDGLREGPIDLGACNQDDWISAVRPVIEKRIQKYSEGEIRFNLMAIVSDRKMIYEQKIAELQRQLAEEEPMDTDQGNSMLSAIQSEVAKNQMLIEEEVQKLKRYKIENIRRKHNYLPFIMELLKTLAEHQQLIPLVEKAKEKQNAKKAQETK
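assay system = human UCH37 enzyme supplied as purified proteasome complex | amount = proteasome at 0.15 nM in the dispensed enzyme solution | schedule = 30 min compound-proteasome preincubation then 25 min substrate reaction, room temperature | measured by = fluorescence, ex 355 nm, em 460 nm | benchmarks = no-proteasome wells (full inhibition) and compound-free wells (no inhibition)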
rRNA inh HTS OD600: recorded beside rRNA inh HTS, whose call it bears; OD600 change, %; measured here: OD600 growth;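 optical density of the mix in the first replicate; 0 = DMSO median and -100 = no signal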
rRNA inh HTS RFP: further read-out of rRNA inh HTS, marked with its call; RFP signal change, %; measured here: RFP humanized mutant strains;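 first replicate; 0 = DMSO median and -100 = no signal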
* marks the source's active call; other numbers are inactive results; i = inactive; nt = not tested or not shown. A portion of the library; rates above refer to the full screens.

#	structure	FGF22 binding	rRNA inh HTS	rRNA inh HTS OD600	rRNA inh HTS RFP	HNF4A DNA FP	B2AR ag	E coli growth	ALR inh	UCH37 DUB inh
1	O=C(CSc1nc(-c2ccco2)cc(C(F)(F)F)n1)Nc1cccnc1	nt	nt	nt	nt	1.0	-25	0.66	-17	4.2
2	COc1cc2c(cc1OC)C(C(=O)N1CCOCC1)C(c1cccs1)N(C)C2=O (stereo unspecified)	nt	nt	nt	nt	0.4	-4	0.67	-4	0.8
3	Cc1cccc(S(=O)C(c2ccccc2)c2ccccc2)c1 (stereo unspecified)	i	-22	-32	-7.2	-2.3	6	0.67	nt	1.2
4	CCOc1ccc(NC(=O)COC(=O)c2cc([N+](=O)[O-])ccc2N2CCOCC2)cc1	i	-12	-7	3.6	-0.7	10	0.65	-4	7.0
5	O=C(Nc1ccccc1)c1ccc(N2CCN(c3ccccn3)CC2)c(S(=O)(=O)N2CCOCC2)c1	nt	nt	nt	nt	-2.8	-12	0.7	-6	-7.2
6	O=C(/C=C\c1cccs1)c1c(O)ccc2ccc(=O)oc12	nt	nt	nt	nt	2.6	-2	0.7	57	2.9
7	C=CC[C@@H](CC(=O)N(CCO)Cc1ccccc1)C(=O)N[C@H](COC(=O)[C@@H](CC=C)Cc1ccc(F)cc1)Cc1c[nH]c2ccccc12	i	3	5	-5.9	4.2	26	nt	0	0.8
8	COc1ccc(/C=N/n2c(SC)nnc(C(C)(C)C)c2=O)cc1	nt	nt	nt	nt	0.7	-1	nt	3	nt
9	COc1cc(C(=O)OCC(=O)Nc2ccc(C(C)=O)cc2)ccc1OCC(=O)N1CCOCC1	i	1	10	6.2	-1.0	5	0.7	-3	-2.2
10	O=C(COC(=O)c1ccc[nH]c1=O)Nc1ccc2c(c1)OC(F)(F)O2	i	11	11	4.1	-2.6	5	0.77	nt	0.9
11	O=C(OCc1nc2ccsc2c(=O)[nH]1)c1ccccc1	i	4	3	-2.0	5.8	2	0.62	-18	-3.2
12	CCn1c2ccccc2c2nnc(SCC(=O)OCN3C(=O)c4ccccc4C3=O)nc21	nt	nt	nt	nt	-0.2	2	0.66	-4	-1.8
13	COc1ccc(OC)c(-c2cc(C(=O)NCc3cccs3)no2)c1	nt	nt	nt	nt	0.5	5	0.65	-1	-24
14	O=C(/C=C/c1ccco1)OCC(=O)c1ccc(OC(F)F)cc1	i	4	-4	1.9	6.6	2	0.67	-5	2.6
15	CCC1CCCCN1C(=O)c1cc(S(=O)(=O)N2CCOCC2)ccc1C (stereo unspecified)	i	3	-3	-5.7	1.2	0	0.64	0	-0.7
16	Cc1cccc(NC(=O)Cn2c(=O)n(CCC(=O)NC3CCCC3)c(=O)c3ccccc32)c1	nt	nt	nt	nt	-0.8	-7	0.76	-39	-1.1
17	CCn1c(-c2ccco2)nc2ccccc21	nt	nt	nt	nt	-1.6	3	0.72	6	-2.2
18	COc1ccc(NC(=O)C2CCN(c3ncnc4c3nc3n4CCCCC3)CC2)cc1Cl	i	-4	-8	-0.5	-3.5	10	0.66	0	5.4
19	O=C(Nc1ccc(Cl)cn1)c1ccccc1-c1ccccc1	i	6	12	-0.6	1.3	nt	nt	nt	nt
20	COc1ccccc1-c1nc(-c2ccncc2)no1	nt	nt	nt	nt	0.9	-6	0.74	-4	-2.1
21	c1ccc(-c2cc3c(-n4cccc4)ncnc3o2)cc1	nt	nt	nt	nt	2.0	9	0.75	5	-14
22	O=C(CSc1nc(-c2ccco2)cc(C(F)(F)F)n1)NN1CCOCC1	i	13	11	1.0	-3.2	0	0.7	-1	1.8
23	N=c1c(C(=O)NCC2CCCO2)cc2c(=O)n3ccccc3nc2n1Cc1ccccc1 (stereo unspecified)	i	2	10	-2.9	-0.3	2	0.66	-4	i
24	COc1ccc(NC(=S)NCc2cccnc2)cc1OC	i	-4	-4	2.2	-1.6	3	0.68	-7	1.5
25	O=C(NCC(=O)N(c1ccccc1)C(C(=O)NCC1CCCO1)c1ccccc1)c1ccco1 (stereo unspecified)	nt	nt	nt	nt	1.5	-6	0.7	nt	-0.2
26	Cc1ccsc1/C=C/c1n[nH]c(=O)c(C#N)c1C	i	-3	-3	4.6	-3.5	0	0.66	-5	4.9
27	COc1ccc(OCC(=O)NCC(c2ccc(OC)cc2)N2CCCCC2)cc1 (stereo unspecified)	i	5	2	-1.8	1.9	-4	0.71	-17	3.3
28	Cc1ccc(-c2nc(CN(C)C(C3CC3)C3CC3)c(C)o2)cc1	i	3	-6	5.1	0.8	6	0.65	1	-2.4
29	Cc1ccccc1OCC(=O)N/N=C/c1ccc2c(c1)OCCO2	nt	nt	nt	nt	-1.5	-7	nt	-2	nt
30	COc1ccc(F)cc1S(=O)(=O)NCCN1CCOCC1	i	11	16	0.4	-3.6	-4	0.7	-1	-0.4

Whole records, quoted from the list. Values in the order: FGF22 binding, rRNA inh HTS, rRNA inh HTS OD600, rRNA inh HTS RFP, HNF4A DNA FP, B2AR ag, E coli growth, ALR inh, UCH37 DUB inh
Profile of COc1ccc(NC(=S)NCc2cccnc2)cc1OC : i, -4, -4, 2.2, -1.6, 3, 0.68, -7, 1.5
Profile of COc1cc2c(cc1OC)C(C(=O)N1CCOCC1)C(c1cccs1)N(C)C2=O (stereo unspecified) : nt, nt, nt, nt, 0.4, -4, 0.67, -4, 0.8

Reprinted at random: two compounds from above
#	structure	FGF22 binding	rRNA inh HTS	rRNA inh HTS OD600	rRNA inh HTS RFP	HNF4A DNA FP	B2AR ag	E coli growth	ALR inh	UCH37 DUB inh
7	C=CC[C@@H](CC(=O)N(CCO)Cc1ccccc1)C(=O)N[C@H](COC(=O)[C@@H](CC=C)Cc1ccc(F)cc1)Cc1c[nH]c2ccccc12	i	3	5	-5.9	4.2	26	nt	0	0.8
13	COc1ccc(OC)c(-c2cc(C(=O)NCc3cccs3)no2)c1	nt	nt	nt	nt	0.5	5	0.65	-1	-24

(listing goes on)
#	structure	FGF22 binding	rRNA inh HTS	rRNA inh HTS OD600	rRNA inh HTS RFP	HNF4A DNA FP	B2AR ag	E coli growth	ALR inh	UCH37 DUB inh
31	COc1ccc(C2(CNC(=O)c3ccc(Br)o3)CCOCC2)cc1	nt	nt	nt	nt	-5.1	-4	0.7	-2	-1.8
32	Cc1ccc(NC(=O)C(C)c2cccc(C(=O)c3ccccc3)c2)cc1O (stereo unspecified)	i	nt	nt	nt	-1.8	-5	0.68	-5	6.8
33	Cc1ccccc1Cn1cc(NC(=O)c2noc(C(C)C)c2[N+](=O)[O-])cn1	i	-6	-11	4.2	0.3	4	0.68	-3	0.8
34	Cc1ccc(Cl)cc1-c1cc(C(=O)NCc2ccc(C(F)(F)F)cc2)[nH]n1	i	-7	-14	3.0	-0.1	nt	nt	nt	nt
35	CCN(C[C@H]1N[C@@](Cc2ccccc2)(C(=O)OC)[C@H]2C(=O)N(Cc3ccccc3)C(=O)[C@@H]12)S(=O)(=O)c1ccc(C)cc1	i	2	2	-2.9	-1.6	-1	0.76	nt	3.2
36	Cc1ccccc1NS(=O)(=O)c1ccc2c(c1)NC(=O)CCS2	i	1	-8	-2.4	2.5	2	0.72	-12	3.4
37	O=C1NN=C2CCCCCCC12 (stereo unspecified)	i	14	14	2.5	-0.4	nt	nt	nt	nt
38	CCN(CC)CCN(C(=O)CCS(=O)(=O)c1ccccc1)c1nc2cc3c(cc2s1)OCO3	i	15	25	-1.1	2.4	-2	0.69	62	0.6
39	O=c1cc(N2CCN(Cc3ccccc3)CC2)[nH]c(=O)n1-c1ccc(Br)cc1	i	8	6	1.4	-3.4	6	0.78	-1	6.0
40	CCCCNc1nc2c(-c3ccccc3)nnn2c2ccccc12	i	21	9	3.2	2.5	1	0.67	nt	-171
41	CC(C)CCNC(=O)NC(=O)CSc1nnc(COc2ccccc2Cl)o1	nt	nt	nt	nt	-1.6	-2	0.68	nt	2.6
42	CC1(C)O[C@@H]2CC3C4C[C@H](F)C5=CC(=O)C=CC5(C)C4C(O)CC3(C)[C@]2(C(=O)CO)O1 (stereo partly specified)	i	nt	nt	nt	1.7	7	nt	-7	0.0
43	Cc1ccc(S(=O)(=O)NCCC(=O)NCc2ccco2)cc1	nt	nt	nt	nt	1.8	-3	0.67	3	0.5
44	COc1ccc(C(=O)Nc2ccccc2C(=O)Nc2ccccc2C(=O)O)cc1	nt	-39	-65	-10	2.6	13	nt	98*	nt
45	Cc1oc(-c2ccc(Cl)cc2)nc1CS(=O)CC(=O)NCc1ccccn1 (stereo unspecified)	i	-1	-2	-1.4	-2.2	-4	0.68	99*	3.8
46	O=C(NC1CCCC1)C1C2C=CC3(CN(Cc4cccs4)C(=O)C13)O2 (stereo unspecified)	i	0	-1	0.4	-0.5	-1	0.71	54	4.9
47	c1ccc2c(c1)NC1(CCCCCC1)n1c-2nc2ccccc21	nt	nt	nt	nt	-0.4	1	0.64	56	-454
48	COc1ccc(N2CCN(CC(=O)Nc3c(C)cccc3C)CC2)cc1	i	7	6	-0.7	4.1	nt	nt	nt	nt
49	O=C(COC(=O)c1cc([N+](=O)[O-])ccc1NCCO)Nc1cccc(S(=O)(=O)N2CCCC2)c1	i	-23	-21	-0.5	-0.6	7	0.69	-10	4.6
50	CCCCc1nc(Cl)c(C#N)c2c1CCCC2	i	-15	-15	-3.9	-1.6	-5	0.68	-11	4.4
51	Cc1cccc(NCc2nc(SCC(=O)Nc3ccccc3Br)n[nH]2)c1	i	-5	-11	5.9	2.3	-3	0.68	3	1.3
52	CCCCc1nnc(NC(=O)C2CC(=O)N(c3ccc(C)cc3)C2)s1 (stereo unspecified)	i	7	7	0.3	3.8	-5	0.73	-1	6.0
53	CCc1nc2ccccc2n1CCC(C)C	nt	nt	nt	nt	-3.1	-7	0.68	3	-1.3
54	CC1OC(C2CCCCC2)Cc2[nH]c(=S)[nH]c(=O)c21 (stereo unspecified)	i	-9	-4	-0.6	-0.4	nt	nt	nt	nt
55	O=C1C=CC(c2c[nH]c3ccccc23)CC1 (stereo unspecified)	i	-14*	5.0*	3.8*	-1.5	nt	nt	nt	nt
56	Cc1ccc(-n2[nH]c(C)c(/C=N/N3C(=O)c4cccc5cccc(c45)C3=O)c2=O)cc1	i	-11	-9	-2.1	-6.4	5	nt	-15	nt
57	O=C(CCn1cncn1)N1CCN(S(=O)(=O)c2ccc(Cl)cc2)CC1	i	7	12	-3.2	0.9	-2	0.66	1	1.9
58	Cc1ccccc1C(=O)Nc1nnc(-c2ccc(F)cc2)o1	i	-56	-80	-16	0.2	2	0.7	nt	5.2
59	Cc1cccc(C)c1NC(=O)C1(C)CCC(=O)N1c1cc(C(C)(C)C)nn1C (stereo unspecified)	i	10	18	-1.9	-2.0	nt	nt	nt	nt
60	COc1ccc(C2NCCn3cccc32)cc1 (stereo unspecified)	nt	nt	nt	nt	2.5	-3	0.68	1	0.6
61	COC(=O)CCC(=O)NNC(=O)c1cccc(Br)c1	nt	nt	nt	nt	3.5	-1	0.73	-5	6.3
62	CCn1cc(CN2CCN(Cc3ccc(OC)c(C)c3C)C(CCO)C2)c(C)n1 (stereo unspecified)	i	12	8	-0.5	5.2	-6	0.67	-5	3.6
63	Cc1ccc(-c2nc(CCN3C(=O)c4ccccc4C3=O)cs2)cc1	nt	nt	nt	nt	-2.7	10	0.69	-7	4.3

Values by screen from the entries so far.
rRNA inh HTS, compounds 50 to 55 → -15, -5, 7, nt, -9, -14*
FGF22 binding, compounds 50 to 55 → i, i, i, nt, i, i
